Beta apoptosis: blocks beta cell apoptosis; INS-1E cytokine-induced death, ATP luminescence, 48 h; percent of positive-control rescue, neutral wells zero; protection from apoptosis, % (test concentration not listed); 300,000 tested, 0.8% active;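 active means all replicates at 75% or more, or half of them and the mean; inconclusive means half reach 75% but not the mean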;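 further: 0% = cytokine-treated negative control wells and 100% = positive control rescue; higher means more ATP so stronger rescue from cytokine killing; wells of about 40 µL received 100 nL stock; the first replicate is given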
ALR H2O2 inh: inhibitors of human sulfhydryl oxidase ALR | 290,000 tested, 3.8% active | AID 485317 | inhibition, % (test concentration not listed) | purified ALR, DTT oxidation, H2O2 HRP-luminol luminescence;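 active means mean and each replicate at 75% or more; inconclusive means only one of the two met; inactive means neither met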;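 further: stock transfer was 7.5 nL into about 7.5 µL; 0% = neutral wells and 100% = wells with inactivated enzyme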
Target sequence (P55789 whole entry, looked up): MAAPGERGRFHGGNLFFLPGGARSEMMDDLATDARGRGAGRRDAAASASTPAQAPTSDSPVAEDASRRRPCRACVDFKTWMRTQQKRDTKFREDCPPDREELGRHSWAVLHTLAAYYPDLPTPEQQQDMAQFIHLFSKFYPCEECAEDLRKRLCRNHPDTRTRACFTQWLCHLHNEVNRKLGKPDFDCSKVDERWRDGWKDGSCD
LANA-H2A inh: blocks KSHV LANA binding to histone H2A/H2B | Q9QR71 | 320,000 tested, 0.6% active | cell-free LANA-H2A/H2B peptide, fluorescence polarization | inhibition, % (concentration not given with the values); in the data active means inhibition mostly above about 10%, no sharp cut-off; inactive means mostly below about 6.7%;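 further: stock transfer was 7.5 nL into about 10 µL; 0% = median of vehicle wells and 100% = median of positive control wells; one replicate is shown; the record names a cut of 25% in any replicate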
Calb FLC: affects C. albicans growth with fluconazole; C. albicans CaCi-2 (fluconazole-resistant clinical isolate) + fluconazole, Alamar Blue growth, 48 h; growth inhibition, % (no concentration beside the values); 300,000 tested, 0.57% active;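 active means most replicates above 75%; inconclusive means exactly half above 75%; inactive means most below 75%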;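 further: all wells also contain fluconazole at 8 µg/ml as a sub-toxic cotreatment; 0% = median of DMSO wells and 100% = median of geldanamycin control wells; wells of about 8 µL received 7.5 nL stock; the first replicate is given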
A1 inh: inhibitors of the anti-apoptotic protein A1, read as caspase activation; MEF A1-2A-BIM cells, Caspase-Glo 3/7 luminescence, 3 h; percent of clofoctol response, vehicle zero; caspase activation, % (no concentration beside the values); 330,000 tested, 0.066% active; AID 2462;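 active means over half of replicate activation scores above 10%, or exactly half above 10 with the replicate mean above 10; inconclusive means replicate mean below 10 yet half the replicates above 10; inactive means over half of replicates below 10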;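 further: wells of about 30 µL received 50 nL stock; many hits fall short of the cut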
T cruzi inh: T. cruzi replication inhibition | T. cruzi beta-gal in NIH3T3, luminescence, 90 h | inhibition, % (test concentration not listed) | 300,000 tested, 1.4% active | AID 1885;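 active means mean inhibition across valid replicates above about 55%, limit read from the data; inconclusive means mean below that limit but half or more replicates reach it; inactive means mean below it, under half of replicates reach it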;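 further: signal also drops with host cell toxicity which is not excluded here; 0% = plate median of DMSO wells and 100% = zero luminescence signal; higher percent means less beta-gal luminescence so fewer parasites; stock transfer was 50 nL into about 50 µL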
Ecoli rRNA inh: inhibits bacterial ribosomal RNA function over humanized ribosomes; 350,000 tested, 1.6% active; E. coli WT GFP vs humanized-ribosome RFP mutants, fluorescence, 24 h; stronger effect = lower value; DMSO median 0, no signal -100; GFP signal change (wild-type ribosome), % (test concentration not listed);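 active means significant combined selectivity score with lowered wild-type GFP, culture density cut under 30%, mutant RFP and density less affected; inactive means any of these conditions unmet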; further: one replicate is shown; some compounds called inactive have numbers as strong as hits
B2AR ag: activates human beta-2 adrenergic receptor causing internalization; AID 504454; 340,000 tested, 0.43% active; response, % (no concentration beside the values); Am2.2-beta2AR cells, FAP receptor internalization, flow cytometry; reference of the scale not given here; P07550;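 active means response above a set limit, near 3 SD of response in nonfluorescent compounds, cut at about 42% in these data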;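 further: stock transfer was 100 nL into about 11 µL; a reference agonist was the positive control; negative values mostly stem from fluorescent compounds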
Target sequence (P07550 whole entry, looked up): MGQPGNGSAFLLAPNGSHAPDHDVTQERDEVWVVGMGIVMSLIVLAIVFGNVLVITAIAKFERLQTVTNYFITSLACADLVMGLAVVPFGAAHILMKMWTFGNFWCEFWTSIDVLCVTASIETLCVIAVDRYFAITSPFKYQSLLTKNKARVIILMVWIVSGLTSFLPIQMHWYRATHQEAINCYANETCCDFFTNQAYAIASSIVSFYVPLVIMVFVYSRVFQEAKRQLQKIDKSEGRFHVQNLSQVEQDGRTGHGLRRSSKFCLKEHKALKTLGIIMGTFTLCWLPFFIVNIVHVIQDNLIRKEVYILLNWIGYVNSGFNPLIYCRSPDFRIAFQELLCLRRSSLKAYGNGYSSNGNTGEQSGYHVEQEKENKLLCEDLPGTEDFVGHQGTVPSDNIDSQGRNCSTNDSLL
Ecoli rRNA inh OD600: also measured in Ecoli rRNA inh; calls as there; OD600 change, %; measured here: OD600 growth;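 optical density of the mix in the first replicate; 0 = DMSO median and -100 = no signal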
Ecoli rRNA inh RFP: also measured in Ecoli rRNA inh; calls as there; RFP signal change, %; measured here: RFP humanized mutant strains;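 first replicate; 0 = DMSO median and -100 = no signal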
The depositor's hits bear a star; ? = inconclusive; nt = not tested or not shown. A portion of the library; rates above refer to the full screens.

| SMILES | A1 inh | Ecoli rRNA inh OD600 | Ecoli rRNA inh | ALR H2O2 inh | LANA-H2A inh | T cruzi inh | B2AR ag | Beta apoptosis | Calb FLC | Ecoli rRNA inh RFP |
| --- | --- | --- | --- | --- | --- | --- | --- | --- | --- | --- |
| Cc1sc2ncn(CC(=O)NCC(=O)N(C)Cc3ccccc3)c(=O)c2c1C | 0.8 | nt | nt | -2 | 5.8 | -4 | 3 | 0 | -17 | nt |
| Nc1cc(=O)[nH]c(SCc2cccc(Cl)c2)n1 | -0.2 | nt | nt | -11 | 2.7 | nt | 5 | 0 | nt | nt |
| COc1ccc(N/C=C(\[N+](=O)[O-])S(=O)(=O)c2ccccc2)cc1 | -0.4 | -16 | -16 | -15 | 3.8 | 15 | -13 | 4 | -6 | 2.2 |
| CC(C)OC(=O)CSc1nc(C(C)C)nc2ccccc12 | 0.5 | 16 | 21 | -1 | 0.8 | 3 | -5 | 0 | 0 | 2.1 |
| CCOC(=O)c1sc2nc(C)[nH]c(=S)c2c1C | nt | 17 | 10 | nt | nt | ? | 0 | nt | 0 | 1.4 |
| CC(=O)Nc1ccc(C2=CC(=O)CC(C)(C)C2)cc1 | -0.4 | 10 | 11 | -3 | 4.9 | nt | -2 | 2 | nt | -5.3 |
| Cc1sc2ncn(CC(=O)NCCCC(=O)N3CCN(c4ncccn4)CC3)c(=O)c2c1C | -0.5 | nt | nt | -5 | 5.3 | 0 | -5 | nt | -12 | nt |
| CN(CC(=O)NC(=O)NCc1ccccc1)CC(=O)Nc1ccc(Cl)c(C(F)(F)F)c1 | 1.3 | -6 | -6 | 6 | 4.2 | 20 | nt | -5 | 0 | -0.3 |
| C=CCn1c(SCc2c(C)noc2C)nc2sc3c(c2c1=O)CCCC3 | 0.4 | nt | nt | 2 | -5.3 | 1 | -7 | 21 | 13 | nt |
| CSc1ccccc1NC(=S)N/N=C/c1cccn1Cc1cccc(C)c1 | -2.2 | 6 | 12 | nt | nt | 65* | -6 | 5 | 7 | -2.5 |
| CCCNC(=O)C1CCN(c2ccc(S(=O)(=O)N3CCOCC3)cc2Cl)CC1 | 0.4 | 4 | -5 | 5 | 1.8 | 15 | 3 | 0 | 1 | 0.1 |
| Cc1c(C)n(Cc2ccccc2)c2ncnc(Cl)c12 | -0.4 | -66 | -44 | 12 | 2.6 | 4 | -1 | 20 | 19 | -9.4 |
| CCOC(=O)c1sc(NC(=O)C2CC(=O)N(c3ccc(C)cc3)C2)nc1C (stereo unspecified) | 0.3 | -20 | -3 | 35 | -0.1 | -3 | -2 | 0 | 15 | 11 |
| CCOc1ccc(NC(=O)CN2CCN(c3ccc(F)cc3)CC2)cc1 | -0.2 | -3 | -1 | nt | 0.3 | -7 | -2 | 5 | -1 | 1.0 |
| O=C(Nc1cc(S(=O)(=O)N2CCCCC2)ccc1Cl)c1ccncc1 | 1.1 | 2 | 1 | 1 | 1.3 | nt | -11 | 1 | nt | -0.3 |
| CC(=O)Oc1ccc(/C=C2\C=C(c3ccc(C)cc3)OC2=O)cc1 | -0.7 | 13 | 9 | 3 | 2.1 | -11 | -10 | -6 | 2 | 4.4 |
| Cc1ccc(C(=O)Oc2ccccc2N2CCOCC2)cc1 | -0.6 | 4 | -1 | -2 | 6.7 | 3 | 1 | -2 | -25 | -4.2 |
| Cc1ccc(-c2noc(CSc3nnc(Cc4cccs4)n3-c3ccccc3)n2)cc1 | 0.9 | -36 | -24 | -4 | -1.5 | 12 | 0 | -7 | 12 | -4.6 |
| FC(F)Oc1ccc(/C=N/n2c(Cc3ccc(Br)cc3)n[nH]c2=S)cc1 | 0.7 | -14 | -10 | 65 | -6.4 | -5 | 4 | -9 | -2 | 0.2 |
| CCOC(=O)c1c(NC(=O)C2(C)Cc3ccccc3C(=O)O2)sc2c1CCCC2 (stereo unspecified) | -0.3 | 3 | 6 | -9 | -2.9 | -15 | 13 | 5 | 6 | -0.1 |
| O=C(NCc1ccccc1)NC1(C(=O)Nc2ccc3c(c2)OCCO3)CCCCC1 | -0.3 | nt | nt | -5 | 2.2 | -1 | 8 | -4 | -2 | nt |
| O=C(Cc1ccccc1)c1c[nH]c(C(=O)O)c1 | -0.1 | 8 | 16 | -1 | 1.5 | -3 | -3 | -3 | -3 | -1.5 |
| Nc1nc(-c2cccnc2)nn1C(=O)c1ccc(Cl)cc1 | nt | 19 | 30 | nt | nt | -4 | -10 | nt | 4 | 3.8 |
| CCCNC(=O)c1ccccc1NC(=O)C1COc2ccccc2O1 (stereo unspecified) | -0.4 | nt | nt | -12 | -3.5 | 4 | 4 | -3 | 2 | nt |
| O=S(=O)(c1ccc(F)cc1)N1CCN(S(=O)(=O)c2cc(F)ccc2F)CC1 | 0.6 | 3 | -1 | nt | 4.0 | -6 | -1 | 0 | 12 | -3.1 |
| O=C(Cc1c(C(=O)O)[nH]c2ccc(Cl)cc12)Nc1ccc2c(c1)OCCO2 | 0.3 | nt | nt | 24 | 0.5 | -35 | -6 | -5 | 10 | nt |
| O=C(CSc1n[nH]c(-c2ccccc2)n1)N1CCOCC1 | -1.2 | -2 | -1 | -6 | -5.2 | -4 | -7 | nt | -3 | -2.7 |
| COc1ccc(NC(=O)CN(C)C(=O)CCNC(=O)c2ccccc2OC)cc1 | 0.3 | 3 | -2 | -3 | -8.0 | -9 | -4 | 4 | 2 | -1.9 |
| CCC(CC)C(=O)c1c[nH]c(C(=O)N2CCN(c3ccccc3)CC2)c1 | -0.1 | 7 | 6 | 1 | -0.9 | 0 | -8 | -8 | -10 | -6.5 |
| Cc1ccc2[nH]c(O)c(N=NC(=O)C3CC3c3ccccc3)c2c1Br (stereo unspecified) | 3.2 | nt | nt | 2 | -3.2 | 31 | 2 | 28 | 19 | nt |
| COc1ccc(C(=O)Nc2ccnn2C2CCN(C(=O)c3cnsn3)CC2)cc1 | 0.6 | -6 | -2 | -1 | 0.7 | -15 | 2 | 1 | -7 | -1.9 |
| Cc1ccc(C2C(C#N)=C(N)N(c3ncn[nH]3)C3=C2C(=O)CC(C)(C)C3)cc1 (stereo unspecified) | 1.6 | nt | nt | -9 | -4.9 | -14 | -4 | 6 | -4 | nt |
| Cc1cccc(OCC(=O)NCCCNC(=O)c2ccccn2)c1 | 0.2 | 15 | -2 | -14 | -2.0 | 3 | -6 | nt | -1 | 3.3 |
| CCC1SC(=NC(=O)c2ccc(Cl)c(Cl)c2)NC1=O (stereo unspecified) | -2.0 | nt | nt | -3 | -5.4 | -2 | 1 | 0 | 7 | nt |
| Cc1csc(N2CCc3ccccc32)n1 | -2.6 | nt | nt | 0 | 6.1 | -12 | 3 | -2 | 1 | nt |
| CCC(C)Sc1nc2c(c(=O)[nH]c(=O)n2C)n1CC(O)COc1cccc2ccccc12 (stereo unspecified) | ? | nt | nt | -24 | -1.8 | 14 | -2 | 2 | 16 | nt |
| C=C1CCN([C@@H](CC(C)C)C(=O)N2CCCC2)S(=O)(=O)c2ccccc21 | 1.3 | -7 | -3 | -6 | 3.5 | 2 | 5 | -4 | 2 | -1.7 |
| Cc1cc(Nc2cccc(F)c2)nc(N2CCOCC2)n1 | 0.8 | nt | nt | 2 | -0.3 | 7 | 9 | -2 | 0 | nt |
| CC(Sc1n[nH]c(N)n1)C(=O)C12CC3CC(CC(C3)C1)C2 (stereo unspecified) | 0.6 | nt | nt | 1 | -1.0 | -11 | -4 | 1 | 0 | nt |
| COc1ccccc1C1CCN(Cc2ccccc2)CC1 | 0.3 | 6 | 3 | nt | -1.2 | 21 | -4 | nt | -20 | -0.4 |

Molecules listed so far containing a COOH group:
| SMILES | A1 inh | Ecoli rRNA inh OD600 | Ecoli rRNA inh | ALR H2O2 inh | LANA-H2A inh | T cruzi inh | B2AR ag | Beta apoptosis | Calb FLC | Ecoli rRNA inh RFP |
| --- | --- | --- | --- | --- | --- | --- | --- | --- | --- | --- |
| O=C(Cc1ccccc1)c1c[nH]c(C(=O)O)c1 | -0.1 | 8 | 16 | -1 | 1.5 | -3 | -3 | -3 | -3 | -1.5 |
| O=C(Cc1c(C(=O)O)[nH]c2ccc(Cl)cc12)Nc1ccc2c(c1)OCCO2 | 0.3 | nt | nt | 24 | 0.5 | -35 | -6 | -5 | 10 | nt |

(listing goes on)
| SMILES | A1 inh | Ecoli rRNA inh OD600 | Ecoli rRNA inh | ALR H2O2 inh | LANA-H2A inh | T cruzi inh | B2AR ag | Beta apoptosis | Calb FLC | Ecoli rRNA inh RFP |
| --- | --- | --- | --- | --- | --- | --- | --- | --- | --- | --- |
| COc1cc(OC)c(C2Nc3cccc4cccc(c34)N2)c(OC)c1 | -0.1 | 17 | 9 | ? | -3.9 | 0 | 0 | 15 | 3 | 9.0 |
| Cc1ccccc1N(C(=O)c1snc(C(N)=O)c1N)C(C)C(=O)NC1CCCCC1 (stereo unspecified) | 0.5 | 6 | 14 | 73 | 2.1 | 8 | -3 | -7 | -26 | 0.6 |
| CCOC(=O)c1sc(NC(=O)c2cccc(S(=O)(=O)N(CC)CC)c2)cc1C | 0.2 | nt | nt | -15 | 4.6 | 32 | -3 | 1 | 0 | nt |
| Cc1cc(OCC(=O)NNC(=O)c2ccncc2)ccc1C(C)C | 1.6 | -1 | -7 | 21 | -5.2 | -11 | -1 | nt | 17 | -0.7 |
| COc1ccccc1C(=O)NCCC(=O)N(C)CC(=O)Nc1ccc(N2CCOCC2)cc1 | ? | 1 | -1 | 99* | 2.4 | -6 | 8 | -5 | 1 | -0.8 |
| CCOC(=O)C1(Cc2cccc(OC)c2)CCCN(C(=O)c2cc(C)[nH]n2)C1 (stereo unspecified) | -1.0 | 5 | 9 | -1 | -5.3 | -21 | -6 | nt | 1 | 0.5 |
| COc1ccc(C(=O)NCc2nnc(SCC(=O)Nc3nnc(C)s3)o2)cc1 | -0.7 | 2 | -5 | 99* | -2.5 | 1 | 22 | -1 | -8 | -2.2 |
| CCN(CC)C(=O)COc1cccc2ccccc12 | 0.1 | nt | nt | -33 | 0.1 | 5 | 4 | -1 | 25 | nt |
| CCN(CC(=O)Nc1c(F)cccc1F)C(=O)c1cccc(S(=O)(=O)NCc2ccccc2)c1 | 1.3 | 2 | 3 | -5 | 2.4 | -4 | -1 | -1 | 0 | -0.3 |
| O=c1ccc(/C=C/c2ccccc2)nn1Cc1ccccc1Cl | -0.2 | nt | nt | -6 | -4.1 | 5 | 27 | -3 | -3 | nt |
| COc1ccc(-n2c(SCC(=O)Nc3cc(C)on3)nc3ccc(O)cc3c2=O)cc1OC | 1.3 | nt | nt | 27 | 0.9 | -6 | -2 | -3 | 5 | nt |
| COc1cc(OCC(N)=O)cc(OC)c1OC | 0.1 | 7 | 5 | 2 | 4.3 | -10 | 0 | -3 | 11 | 4.6 |
| O=[N+]([O-])c1ccc(C2CCCC/C2=N/O)c([N+](=O)[O-])c1 (stereo unspecified) | -1.4 | -75 | -54 | -23 | 0.3 | 4 | 2 | -1 | -2 | -14 |
